Mtb MbtI inh – blocks the Mycobacterium tuberculosis siderophore enzyme MbtI; P9WFX0; 100,000 tested, 0.89% active; AID 493033; purified MbtI enzyme, fluorescence intensity read-out; inhibition, %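 (about 17 µg/mL by stock and volumes)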;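 active = above 50% in both replicates, above 80% if mildly self-fluorescent; inactive = the rest, strongly fluorescent compounds included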;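 also: 0% = mean of negative and 100% = mean of positive controls; one replicate is shown; some compounds called inactive have numbers as strong as hits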
MenB inh – Mtb MenB enzyme inhibition. MenB enzyme assay, absorbance read-out; some hits fall short of the stated cut. inhibition, %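 (about 12 µg/mL by stock and volumes)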. 100,000 tested, 0.43% active;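 active = mean of two replicates above 30%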;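 also: 0% = no compound and 100% = wells with inactive enzyme; the first replicate is given; strong numbers were not always called active; inactives centre near -10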
Target sequence (P9WNP5 whole entry, looked up): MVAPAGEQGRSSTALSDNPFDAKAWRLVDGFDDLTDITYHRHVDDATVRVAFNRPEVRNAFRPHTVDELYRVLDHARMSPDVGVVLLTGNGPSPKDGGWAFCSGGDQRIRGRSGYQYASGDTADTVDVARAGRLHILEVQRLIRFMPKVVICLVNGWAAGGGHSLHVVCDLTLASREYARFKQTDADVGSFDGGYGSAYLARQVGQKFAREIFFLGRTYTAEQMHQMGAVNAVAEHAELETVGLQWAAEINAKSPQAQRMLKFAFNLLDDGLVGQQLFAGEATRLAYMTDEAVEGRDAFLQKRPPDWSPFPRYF
Polio RdRp inh – poliovirus RNA polymerase inhibition. P03300. poliovirus polymerase elongation, fluorescence polarization; active compounds read low. % elongation, % (compound at 16.7 µg/mL). 150,000 tested, 0.66% active; in the data active = % elongation below about 90%; also: some results filed as inactive read as strong as hits
Polio RdRp inh intensity – recorded beside Polio RdRp inh, whose call it bears; % elongation; measured here: total intensity read-out; formula for this scale not given here;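 total fluorescence in place of polarization; lower means less elongation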
Starred values were filed as active, the others as inactive; i = inactive; . = not tested or not shown; & = joins results of further samples. An excerpt; the hit share may differ from the screen's.

| entry | smiles | Mtb MbtI inh | MenB inh |
| --- | --- | --- | --- |
| 1 | COc1ccc(/C=C/C(=O)O)cc1 | 26 | 15 |
| 2 | Nc1c2ccccc2nc2ccccc12 (tested in a mixture with another compound) | i | -4 |
| 3 | CCOc1cc2c3c(c1)c(C1=NC(=S)NC1=O)c(O)n3C(C)(C)CC2C (stereo not given) | -18 | -15 |
| 4 | NC(N)=NC(=O)Cc1c(Cl)cccc1Cl | -9 | 4 |
| 5 | Cc1cccc(C)c1NC(=O)C1CCCCN1C (stereo not given) | -9 | -11 |
| 6 | CCCCCCc1ccc(O)cc1O | -12 | 3 |
| 7 | CCCCC1C(=O)N(c2ccccc2)N(c2ccccc2)C1=O | -19 | -7 |
| 8 | CC(=O)Nc1ccccc1 | -5 | -6 |
| 9 | Cn1c(=O)c2c(ncn2CCO)n(C)c1=O | 7 | -1 |
| 10 | C#C[C@]1(O)CCC2C3CCC4=CC(=O)CC[C@@H]4C3CC[C@@]21CC (stereo not given in full) | -13 | 10 |
| 11 | C=C1c2cccc(O)c2C(O)=C2C(=O)[C@]3(O)C(O)=C(C(N)=O)C(=O)[C@@H](N(C)C)[C@@H]3[C@@H](O)[C@H]12 | -1&-11 | 5&-2 |
| 12 | COc1ccccc1OCCNCC(O)COc1cccc2[nH]c3ccccc3c12 (stereo not given) | -9 | 5 |

| entry | Polio RdRp inh | Polio RdRp inh intensity |
| --- | --- | --- |
| 1 | 103 | 97 |
| 2 | 100 | 102 |
| 3 | 100 | 103 |
| 4 | 100 | 101 |
| 5 | 98 | 103 |
| 6 | 98 | 102 |
| 7 | 101 | 102 |
| 8 | 103 | 103 |
| 9 | 99 | 101 |
| 10 | 100 | 103 |
| 11 | 100&99 | 101&102 |
| 12 | 101 | 101 |

Part of the list above in order of SMILES length, high to low.
| entry | smiles | Mtb MbtI inh | MenB inh |
| --- | --- | --- | --- |
| 11 | C=C1c2cccc(O)c2C(O)=C2C(=O)[C@]3(O)C(O)=C(C(N)=O)C(=O)[C@@H](N(C)C)[C@@H]3[C@@H](O)[C@H]12 | -1&-11 | 5&-2 |
| 10 | C#C[C@]1(O)CCC2C3CCC4=CC(=O)CC[C@@H]4C3CC[C@@]21CC (stereo not given in full) | -13 | 10 |
| 3 | CCOc1cc2c3c(c1)c(C1=NC(=S)NC1=O)c(O)n3C(C)(C)CC2C (stereo not given) | -18 | -15 |
| 12 | COc1ccccc1OCCNCC(O)COc1cccc2[nH]c3ccccc3c12 (stereo not given) | -9 | 5 |
| 7 | CCCCC1C(=O)N(c2ccccc2)N(c2ccccc2)C1=O | -19 | -7 |
| 9 | Cn1c(=O)c2c(ncn2CCO)n(C)c1=O | 7 | -1 |
| 4 | NC(N)=NC(=O)Cc1c(Cl)cccc1Cl | -9 | 4 |
| 1 | COc1ccc(/C=C/C(=O)O)cc1 | 26 | 15 |
| 2 | Nc1c2ccccc2nc2ccccc12 (tested in a mixture with another compound) | i | -4 |
| 6 | CCCCCCc1ccc(O)cc1O | -12 | 3 |

| entry | Polio RdRp inh | Polio RdRp inh intensity |
| --- | --- | --- |
| 11 | 100&99 | 101&102 |
| 10 | 100 | 103 |
| 3 | 100 | 103 |
| 12 | 101 | 101 |
| 7 | 101 | 102 |
| 9 | 99 | 101 |
| 4 | 100 | 101 |
| 1 | 103 | 97 |
| 2 | 100 | 102 |
| 6 | 98 | 102 |

Other entries follow.
| entry | smiles | Mtb MbtI inh | MenB inh |
| --- | --- | --- | --- |
| 13 | CC(=O)Nc1ccc(O)cc1 | -3&-2 | -2&14 |
| 14 | COc1cc([C@H]2Oc3cc([C@H]4Oc5cc(O)cc(O)c5C(=O)[C@@H]4O)ccc3O[C@@H]2CO)ccc1O | 2 | -12 |
| 15 | CC(=O)N1CC(O)C[C@H]1C(=O)O (stereo not given in full) | 0 | -22 |
| 16 | O=C(O)C1[C@H]2C[C@H]3c4[nH]c5ccccc5c4CCN3C[C@@H]2CC[C@@H]1O (stereo not given in full) | . | -6 |
| 17 | CCn1cc(C(=O)O)c(=O)c2cc(F)c(N3CCNCC3)nc21 | -31 | 6&9 |
| 18 | Nc1ncnc2nc[nH]c12 | -11 | 9 |
| 19 | Cc1cc(C)cc(OCC2CNC(=O)O2)c1 (stereo not given) | -8 | -5 |
| 20 | O=C(O)CNC(=O)c1ccccc1 | . | -8 |
| 21 | O=C1CSC(c2ccc3cccc(O)c3n2)N1c1ccc(Cl)cc1 (stereo not given) | -2 | -22 |
| 22 | O=C(O)/C=C/c1ccc(O)cc1 | -6 | . |
| 23 | Cc1cccc(Nc2cc(Cl)nc(SCC(=O)O)n2)c1C | -3 | 3 |
| 24 | CCc1c2c(nc3ccc(OC(=O)N4CCC(N5CCCCC5)CC4)cc13)-c1cc3c(c(=O)n1C2)COC(=O)[C@]3(O)CC | i | -4 |

| entry | Polio RdRp inh | Polio RdRp inh intensity |
| --- | --- | --- |
| 13 | 103&99 | 100&98 |
| 14 | 103 | 100 |
| 15 | 103 | 93 |
| 16 | 96 | 189 |
| 17 | 104&99 | 104&102 |
| 18 | 101 | 102 |
| 19 | 101 | 105 |
| 20 | 98 | 89 |
| 21 | 104 | 101 |
| 22 | 101 | 103 |
| 23 | 102&102 | 102&100 |
| 24 | 99 | 99 |

Remaining list, next part.
| entry | smiles | Mtb MbtI inh | MenB inh |
| --- | --- | --- | --- |
| 25 | CCC(=O)O[C@]1(C(=O)SCF)[C@H](C)C[C@H]2[C@@H]3C[C@H](F)C4=CC(=O)C=C[C@]4(C)[C@@]3(F)[C@@H](O)C[C@@]21C | -13 | 1 |
| 26 | CCCCCC(=O)O[C@]1(C(C)=O)CCC2C3CCC4=CC(=O)CC[C@]4(C)C3CC[C@@]21C (stereo not given in full) | -11 | -3 |
| 27 | Cc1cc(=O)n(-c2ccccc2)[nH]1 | 8 | -160 |
| 28 | CCOC(=O)NNc1nncc2ccccc12 | 2&-3 | -9&-4 |
| 29 | CCCCOc1ccc(CC(=O)NO)cc1 | -7&-15 | 1&-3 |

| entry | Polio RdRp inh | Polio RdRp inh intensity |
| --- | --- | --- |
| 25 | 100 | 102 |
| 26 | 102 | 102 |
| 27 | 100 | 101 |
| 28 | 99&103 | 99&99 |
| 29 | 99&98 | 102&103 |

Source: PubChem (ICCB-Longwood Screening Facility, Harvard Medical School)
